Assay outcomes (PubChem)
UCH37 DUB inh – inhibitors of human UCH37 deubiquitinase, primary screen, biochemical, Ub-AMC cleavage, fluorescence. Ubiquitin carboxyl-terminal hydrolase isozyme L5 (Homo sapiens), Q9Y5K5. purified proteasome/UCH37. inhibition, % (test concentration not listed). hit rate 0.33% among 330,000. AID 588478, 2011;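 active = mean of two replicates above 20%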;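 also: 0% = compound-free wells with enzyme and 100% = wells lacking proteasome; stock transfer was 100 nL into about 20 µL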
Target sequence (Q9Y5K5 whole entry, looked up): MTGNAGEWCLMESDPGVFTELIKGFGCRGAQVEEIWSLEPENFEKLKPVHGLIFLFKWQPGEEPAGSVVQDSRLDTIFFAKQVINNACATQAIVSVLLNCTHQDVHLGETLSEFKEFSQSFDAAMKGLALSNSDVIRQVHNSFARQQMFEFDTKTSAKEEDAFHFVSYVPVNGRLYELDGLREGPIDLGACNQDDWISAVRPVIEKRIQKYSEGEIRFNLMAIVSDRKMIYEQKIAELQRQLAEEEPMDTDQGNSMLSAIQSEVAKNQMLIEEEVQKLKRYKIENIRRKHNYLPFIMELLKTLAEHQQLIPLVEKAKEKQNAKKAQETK
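system = Proteasome-associated human UCH37 deubiquitinase | amount = 0.15 nM proteasome as dispensed | medium = pH 7.4 Tris-HCl (50 mM) with ovalbumin, ATP-MgCl2, DTT | incubation = 30 min preincubation with enzyme, 25 min cleavage at room temperature | detection = AMC fluorescence 355/460 nm | read-out basis = percent inhibition | controls = no-proteasome and no-compound wells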
Vif A3G – inhibitors of Vif binding to APOBEC3G peptide, primary screen, biochemical, TR-FRET, GST-Vif 1-94, biotin-A3G peptide, dose response retest (AID 1117319) | TR-FRET GST-Vif / biotin-A3G peptide binding; higher % means a stronger effect; test concentration not given here; strong numbers were not always called active | Virion infectivity factor (Human immunodeficiency virus type 1 group M subtype B (isolate … | hit rate 0.57% among 260,000 | inhibition, %; hits with a dose series show IC50 in µM;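 active = above the screen mean plus three standard deviations and confirmed in dose response; inconclusive = results disagree or hit not tested in dose response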;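 also: Vif residues 1-94 fused to GST binding biotinylated APOBEC3G peptide 110-148; 0% = full assay without inhibitor and 100% = GST in place of GST-Vif; retest series ran down from 100 µM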
FGF22 binding – binders of human FGF22 protein, primary screen, FGF22 synaptogenesis inhibitor project, biophysical, thermal shift, single point; Fibroblast growth factor 22 (Homo sapiens), Q9HCT0; recombinant FGF22 thermal shift, SYPRO orange fluorescence; percent of sucrose octasulfate shift, DMSO zero; calls only at 9.99 µM; hit rate 1.5% among 340,000; AID 651658, 2012;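 active = melting point raised past a set limit in the mean and every replicate; inconclusive = no clear call; three in four hits are not shown here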
Target sequence (Q9HCT0 whole entry, looked up): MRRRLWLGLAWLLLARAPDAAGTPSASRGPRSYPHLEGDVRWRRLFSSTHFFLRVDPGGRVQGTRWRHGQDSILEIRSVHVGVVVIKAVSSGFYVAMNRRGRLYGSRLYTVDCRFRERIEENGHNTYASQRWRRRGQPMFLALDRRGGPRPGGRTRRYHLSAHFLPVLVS
E coli growth – E. coli growth inhibition, primary screen, OD600; Escherichia coli growth, 23 h; active compounds read low; OD600 absorbance (concentration not given with the values); hit rate 0.21% among 330,000; AID 1053175, 2014;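 active = OD600 absorbance below the run mean of sample wells minus 3.6 SD, in any replicate, cut at about 0.56 in these data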;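 also: stock transfer was 300 nL into about 60 µL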
MLL AF4-AF9 inh – inhibitors of AF4 peptide binding to AF9, primary screen, biochemical, AlphaScreen, biotin-AF4 peptide, FLAG-AF9, single point. Protein AF-9 (Homo sapiens), P42568. inhibition, % at 10 µM. hit rate 0.47% among 350,000;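 active = every replicate reaching a set inhibition limit, whatever the replicate mean, cut at about 25% in these data; inconclusive = mean inhibition reaches that limit but some replicates miss it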;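 also: 0% = plate neutral control median and 100% = total signal loss; the record names both 10 and 1 µM as test concentration; the first replicate is given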
Target sequence (P42568 whole entry, looked up): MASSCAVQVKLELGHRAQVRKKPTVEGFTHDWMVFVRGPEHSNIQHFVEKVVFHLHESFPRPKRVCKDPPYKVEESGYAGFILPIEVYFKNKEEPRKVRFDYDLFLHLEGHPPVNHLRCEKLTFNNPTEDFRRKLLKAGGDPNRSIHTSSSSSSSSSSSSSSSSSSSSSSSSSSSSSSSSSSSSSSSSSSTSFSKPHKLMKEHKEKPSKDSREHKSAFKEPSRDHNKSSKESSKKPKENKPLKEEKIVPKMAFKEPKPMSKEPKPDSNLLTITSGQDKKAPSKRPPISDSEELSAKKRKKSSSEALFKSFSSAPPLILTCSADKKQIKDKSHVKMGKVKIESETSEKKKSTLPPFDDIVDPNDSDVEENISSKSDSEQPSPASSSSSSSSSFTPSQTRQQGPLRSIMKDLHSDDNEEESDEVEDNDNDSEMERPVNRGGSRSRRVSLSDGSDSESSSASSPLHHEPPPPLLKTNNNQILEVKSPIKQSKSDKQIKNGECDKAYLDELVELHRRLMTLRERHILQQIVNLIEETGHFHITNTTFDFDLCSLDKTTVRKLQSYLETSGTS
RanGTP-Impb inh – inhibitors of RanGTP-importin-beta interaction, primary screen, biochemical, FRET, CFP-Ran, YFP-importin-beta, homogeneous | Ran GTPase (GTP-bound) - importin-beta complex | cell-free CFP-Ran/YFP-importin-beta FRET ratio | inhibition, % (test concentration not listed) | hit rate 1.1% among 300,000;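 active = most replicates above 15%; inconclusive = exactly half above 15%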;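 also: 0% = DMSO wells and 100% = Ran loaded with GDP instead of GTP; wells of about 40 µL received 100 nL stock; the first replicate is given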
HNF4A DNA FP – change in binding of human HNF4A to DNA, primary screen, biochemical, fluorescence polarization, FITC-DNA | AID 1224865, 2016 | activity change, % at 10 µM | 1 h | Hepatocyte nuclear factor 4-alpha (Homo sapiens), P41235 | hit rate 0.3% among 360,000; in the data active = activity change above about 30%, passing the limit was not always enough;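 also: controls were the assay level and a saturating level of protein; the project sought stronger binding though the title names inhibitors; some compounds called inactive have numbers as strong as hits; positive values seem to mean higher polarization but the record does not say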
Active calls of the source: *; i = inactive; ? = inconclusive; . = no result given; & = joins results of further samples. This is a subset; the hit share may differ from the screen's.

SMILES	UCH37 DUB inh	Vif A3G	FGF22 binding	E coli growth	MLL AF4-AF9 inh	RanGTP-Impb inh	HNF4A DNA FP
O=Cc1cc(Cl)ccc1OCCN1CCC(Cc2ccccc2)CC1	0.0	.	i	0.56	5.1	-1.5	2.1
Cc1cccc(NC(=O)c2ccc(S(=O)(=O)N3CCC(C)CC3)cc2)n1	.	.	i	.	-5.6	0.5	-1.2
FC(F)Oc1ccc(-c2csc(NNC3=NCCCCC3)n2)cc1	4.5	8%	i	0.91	15	0.1	-2.8
CC1CCN(S(=O)(=O)c2ccc(NC(=O)CSc3ncccc3C(=O)O)cc2)CC1	2.5	11%	.	0.7	.	2.2	-2.7
CCCc1ccc(C(=O)NNc2ccccc2F)cc1	0.6	-5%	i	0.67	0.3	?	-1.0
Cc1cc(C(=O)CSc2nc3ccc(Cl)cc3[nH]2)c(C)n1Cc1ccco1	1.6	.	i	0.68	-7.3	0.7	4.1
CCc1nc2ccc(C(=O)NCCNC(C)=O)cn2c1N(C)Cc1ccc(OC)cc1	.	.	i	.	-1.4	.	0.5
O=C(COc1cccc([N+](=O)[O-])c1)NN1C(=O)c2ccccc2C1=O	0.9	.	i	0.63	1.8	2.8	-2.8
O=C(CSc1nnc2ccc(-c3cccnc3)nn12)Nc1ccccc1	-0.6	-11%	i	0.69	-6.7	-0.1	4.2
CCC(=O)c1ccccc1OCCN1C(=O)NC(C)(C)C1=O	5.8	1%	i	0.69	-5.9	6.6	0.1
CNCC(O)C(O)C(O)C(O)CO (stereo not drawn)	2.2	26%	i	0.67	1.4	3.1	-1.9
Cn1c(O)c(/C=C2\C=NN=C2c2ccccc2)sc1=S	7.0	.	i	0.62	.	0.5	-0.6
Cc1ccc(N=Nc2c(C)[nH]n(-c3ccccc3)c2=O)c(C)c1	4.3	5%	i	0.7	1.2	3.0	0.6
Cc1cc(C)c(OCC(=O)Nc2ccccn2)c([N+](=O)[O-])c1	-3.0	2%	.	0.68	.	-1.8	1.7
CC(C)(C)OC(=O)N1CCN(C(=O)[C@H](Cc2ccc(O)cc2)n2cc(CCO)nn2)CC1	5.5	2%	i	.	.	9.4	-3.1
CC1(C(=O)N2CC3(CC(c4cccc(NC(=O)COc5ccc(Cl)cc5)c4)=NO3)C[C@@H]2C(N)=O)CC1 (stereo partly drawn)	-0.2	14%	i	.	2.6	-2.3	-0.5
COC(=O)C1CN(S(=O)(=O)c2ccccc2)CCN1S(=O)(=O)c1ccccc1 (stereo not drawn)	0.6	2%	.	0.67	.	2.7	4.8
C=CCSc1[nH]c(=O)cc(C)c1C(N)=O	3.8	3%	.	0.66	.	-0.2	2.0
CC1CC(C)CN(C(=O)C2CCN(S(=O)(=O)c3c(Cl)cccc3Cl)CC2)C1 (stereo not drawn)	3.3	.	i	0.71	-1.2	1.5	-2.3
CCn1c(=O)c(=O)[nH]c2cc(C(=O)NC(C)c3ccc(S(N)(=O)=O)cc3)ccc21 (stereo not drawn)	-2.6	.	i	0.69	0.0	-0.5	0.7
Cc1cc(N2CCN(C(=O)c3ccco3)CC2)n2ncc(-c3ccccc3)c2n1	-15	21%	.	0.77	.	-0.4	3.0
COc1cccc(CNC(=O)CCC2CCCN(C(=O)c3cccc4c(C)c(C)[nH]c34)C2)c1 (stereo not drawn)	-4.8	-5%	i	0.67	1.3	-1.8	5.7
CCOc1ccc(CCNC(=O)COC(=O)c2n[nH]c3ccccc23)cc1OCC	.	-19%	i	.	2.1	.	0.0
COc1ccc(N2C[C@H](CSC)[C@@H](CC(=O)Nc3ccccc3)C2=O)cc1	.	-13%	.	.	-5.2	.	1.0
O=C(NCCN1CCOCC1)c1ccc(CS(=O)c2ccccc2Cl)o1 (stereo not drawn)	2.5	-1%	i	0.7	0.0	0.0	3.8

Sorted by molar mass (rising): some entries from above
SMILES	UCH37 DUB inh	Vif A3G	FGF22 binding	E coli growth	MLL AF4-AF9 inh	RanGTP-Impb inh	HNF4A DNA FP
Cn1c(O)c(/C=C2\C=NN=C2c2ccccc2)sc1=S	7.0	.	i	0.62	.	0.5	-0.6
O=C(NCCN1CCOCC1)c1ccc(CS(=O)c2ccccc2Cl)o1 (stereo not drawn)	2.5	-1%	i	0.7	0.0	0.0	3.8
COC(=O)C1CN(S(=O)(=O)c2ccccc2)CCN1S(=O)(=O)c1ccccc1 (stereo not drawn)	0.6	2%	.	0.67	.	2.7	4.8
CC1CCN(S(=O)(=O)c2ccc(NC(=O)CSc3ncccc3C(=O)O)cc2)CC1	2.5	11%	.	0.7	.	2.2	-2.7

Continuation:
SMILES	UCH37 DUB inh	Vif A3G	FGF22 binding	E coli growth	MLL AF4-AF9 inh	RanGTP-Impb inh	HNF4A DNA FP
CCCn1c(SCC(=O)Nc2ccccc2-c2ccccc2)nnc1-c1ccoc1C	5.3	1%	.	0.74	.	-1.5	2.5
COc1ccc(OC)c(C2C(C(=O)Nc3ccccc3OC)=C(C)Nc3nc(CCCO)nn32)c1 (stereo not drawn)	-0.5	18%	i	0.75	-1.4	-5.0	2.5
CCOC(=O)c1oc2ccc3c(c2c1C)C(=O)CC1(CCN(C(=O)OCC)CC1)O3	-4.9	3%&5%	.	0.7	.	1.2	3.2
CC(C)N(C(=O)COC(=O)c1cc(Cl)cc(Cl)c1N)C(C)C	-413	2%	.	0.72	.	3.8	-1.8
CCc1ccccc1NC(=O)CCC(=O)N1CCSc2ccccc21	0.1	-2%	i	0.66	-2.2	0.5	-3.7
COc1ccc(-n2nc(C(=O)NCCCN3CCCC3=O)c3c4ccccc4n(C)c3c2=O)cc1Cl	-50	.	.	0.71	.	-0.5	-5.0
COc1cc2ccccc2cc1C(=O)N1CCCCC1	-5.3	-6%	i	0.69	-1.9	0.6	2.7
Cc1cc(Cl)c(OCCOCCN2CCC(C)CC2)c(Br)c1	1.6	-7%	.	0.6	.	2.0	-1.6
Cc1cc(C)n2nc(C(=O)NCc3ccco3)nc2n1	1.9	.	.	0.78	.	-2.1	-0.7
COc1ccccc1N/N=C1\COC(C)(C)CC1=O	.	-4%	i	.	6.4	8.8	-0.1
O=C(Nc1cc(-c2nc3ncccc3o2)ccc1Cl)c1ccc([N+](=O)[O-])o1	-0.7	.	i	0.65	-3.3	-1.2	-4.5
COc1ccc(N(C(=O)c2ccc(S(=O)(=O)N3CCCC3)cc2)C2C=CS(=O)(=O)C2)cc1 (stereo not drawn)	0.6	-5%	i	0.73	0.3	4.2	-2.5
O=C(Nc1ccc(OC(F)F)cc1)c1cc(S(=O)(=O)N2CCOCC2)ccc1N1CCCC1	0.7	.	i	0.67	0.4	.	-1.0
CCSC1=N/C(=C\c2cccc(F)c2)C(=O)S1	1.9	.	i	0.7	-10	-3.6	2.2
COc1ccc(C(=O)c2c(C)c3ccccc3n2CC(O)CNC(C)C)cc1 (stereo not drawn)	10	29%	i	0.69	9.3	2.2	3.2
CCN(c1ccc(NC(=O)COC(=O)CCc2nc3ccccc3n2-c2ccccc2)cc1)C(C)C	-21	5%	i	0.72	14	-0.4	1.0
CC(C)(C)OC(=O)NCCC(=O)N/N=C/c1cccc2cccnc12	.	0%	i	.	.	2.2	-0.8
CCCCNC(=O)C1c2ccccc2OCC(=O)N1CCOC (stereo not drawn)	.	.	i	.	-2.7	.	-4.8
O=C(O)c1cc(-c2ccccc2)n(-c2ccc(Cl)cc2Cl)n1	2.0	2%	i	0.7	-3.5	?	2.7
Cc1ccc([N+](=O)[O-])cc1NC(=S)NC(=O)c1cccnc1	6.8	0%	i	0.71	1.6	3.9	3.3
O=C(Nc1c(S(=O)(=O)c2ccccc2)csc1Br)c1ccccc1Cl	2.5	-6%	i	0.64	4.6	-3.0	0.2
C=CCOc1ccc(/C=C/C(=O)OCC(=O)N2CCN(S(=O)(=O)c3ccc(C)cc3C)CC2)cc1	3.2	.	i	0.73	3.7	.	7.3
Cc1ccccc1NC(=O)CN1CCN(c2ccc(F)cc2)CC1	.	.	i	.	-1.2	.	2.4
N#Cc1ccccc1Cn1cc(C#N)c2ccccc21	3.6	8%	.	0.69	.	-1.4	1.7
Clc1ccc(Nc2ncn[nH]2)c(Cl)c1	4.3	-8%	i	0.68	0.7	3.6	2.2
SMILES	UCH37 DUB inh	Vif A3G	FGF22 binding	E coli growth	MLL AF4-AF9 inh	RanGTP-Impb inh	HNF4A DNA FP
CC(=O)Nc1ccc(N2Cc3ccccc3C2)cc1	7.2	15%	i	0.58	8.5	0.5	6.8
CCCCN1C(=O)C(CC(=O)NCc2cccc3ccccc23)CC(C(=O)N(C(C)C)C(C)C)=C1C (stereo not drawn)	.	.	i	.	-7.3	.	4.3
Cc1c(C)n(Cc2ccccc2)c2ncnc(Cl)c12	1.8	1%	i	0.66	-1.9	4.1	-1.1
Cc1ccc(OCC(=O)N2CCN(C(=O)c3ccc([N+](=O)[O-])cc3)CC2)cc1	4.4	.	i	0.71	-4.0	5.0	0.7
NC(=O)c1ccsc1NC(=O)COC(=O)c1ccccc1NCc1ccco1	-129	14%	.	0.72	.	1.2	1.1
CCOC(=O)c1c(C)[nH]c(C(=O)COC(=O)C(C)N2C(=O)C3CCCCC3C2=O)c1C (stereo not drawn)	3.0	?	.	0.65	.	0.9	4.6
CCOc1ccc(/C(O)=C2/C(=O)C(=O)N(CCOCCO)C2c2ccc(F)cc2)cc1 (stereo not drawn)	0.6	?	.	0.72	.	2.7	4.1
COc1ccccc1-c1cc(C(=O)NCc2ccc(F)cc2)no1	2.1	15%	i	0.64	5.8	0.0	0.8
CCNC(=O)n1nccc1C(C)Oc1ccc(Cl)cc1 (stereo not drawn)	1.1	0%	.	0.65	.	1.2	1.9
CC(=O)Cc1nsc(Nc2ccc(F)cc2)n1	2.3	6%	i	0.7	-3.2	.	0.8
CCCCc1c(C)c2cc(C)ccc2[nH]c1=O	-2.6	19%	.	0.73	.	5.9	-2.8
CCOC(=O)CNC(=O)C1(NC(=O)CNC(=O)OCc2ccccc2)CCCC1	3.0	2%	i	0.68	-7.9	.	0.9
CC(C)C(=O)NC(=S)N1CCc2ccccc21	10	7%	.	0.68	.	-3.2	-1.2
COc1ccc(C2CC(C(F)(F)F)n3nc(C(=O)NCCCn4ccnc4)cc3N2)cc1OC (stereo not drawn)	-0.6	-2%&-8%	.	0.77	.	1.1	-1.2
CC1(C)CC2(OC2c2ccccc2)C(=O)c2ccccc21 (stereo not drawn)	.	-3%	i	.	-0.4	.	3.4
Cc1ccc2nc3c(cc(C(=O)NC4CCS(=O)(=O)C4)n3Cc3ccccc3)c(=O)n2c1 (stereo not drawn)	i	-1%	i	0.69	0.9	5.2	4.1
COC(=O)C1C(=O)C2=C(CC1C)NC(C)=C(C(=O)OC(C)C)C2c1ccc(OC)c(O)c1 (stereo not drawn)	-6.1	-3%	.	0.69	.	-1.6	3.3
Cc1sc2nc(SCC(=O)N3CCCC3)[nH]c(=O)c2c1C	3.3	7%	i	0.69	0.0	-1.2	-4.0
Cc1cc(O)c(C(C)C)cc1N=Cc1ccccc1O	8.7	-2%	i	0.62	12	-1.0	21
COc1ccccc1CCC(=O)Nc1ccc(S(=O)(=O)Nc2nccs2)cc1	.	.	i	.	-3.4	.	-3.4
O=C(Cc1ccccc1)N1CCc2[nH]nc(-c3ccccc3)c2C1	3.8	-3%	i	0.69	-3.6	-1.4	1.2
